# NS1 inh – blocks influenza NS1 protein function; S. cerevisiae slowed by influenza A NS1, growth recovery by OD600; Potency, µM (titrated, usually from 46.1 µM), for inactives: at the highest dose activity, positive = more growth; 270,000 compounds, 0.4% hits; further: actives are rising curves; nearly all actives have a fitted effect of over 50% in size
#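 Growth recovery, yeast-based: influenza A NS1 expressed in S. cerevisiae causes slow growth, and suppressors are detected by OD600. The parent strain without NS1 is used as positive control.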
# Lassa entry inh – Lassa virus entry inhibition | Lassa virus pseudotype entry inhibition, cell reporter; control for the full effect not named in the record | Potency, µM (highest dose often 37.9 µM), without a hit: at the highest dose activity change, negative = inhibition, hits mostly inhibitors | 300,000 compounds, 1.2% hits | AID 540256; active means well fitted inhibition curve with a large enough effect; inconclusive means small, poorly fitted or top-dose-only effect, or effect the other way; inactive means flat fitted curve, though single readings scatter; tested in HEK293 cells; further: on the % scale 0 is the no-effect control and ±100 the full control effect; nearly all actives have a fitted effect of over 50% in size; luciferase read-out
# Cruzain inh noDet – inhibitors of Trypanosoma cruzi cruzain without detergent. P25779. purified cruzain, Z-FR-AMC fluorescence, no detergent. Potency, µM, without a hit: max response, negative = inhibition, actives largely listed as inhibitors. 200,000 compounds, 2.3% hits; active means well fitted curve in the direction sought with a large enough effect; inconclusive means small, poorly fitted or top-dose-only effect, or another doubt; inactive means no such curve, though single readings can be large; an effect the other way counts as inactive or inconclusive;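 further: plate controls were enzyme without inhibitor for no effect and buffer without enzyme for full effect; nearly all actives have a fitted effect of over 40% in size; top concentration of the series not given in the record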
# Target sequence (P25779 123-467 limits assumed): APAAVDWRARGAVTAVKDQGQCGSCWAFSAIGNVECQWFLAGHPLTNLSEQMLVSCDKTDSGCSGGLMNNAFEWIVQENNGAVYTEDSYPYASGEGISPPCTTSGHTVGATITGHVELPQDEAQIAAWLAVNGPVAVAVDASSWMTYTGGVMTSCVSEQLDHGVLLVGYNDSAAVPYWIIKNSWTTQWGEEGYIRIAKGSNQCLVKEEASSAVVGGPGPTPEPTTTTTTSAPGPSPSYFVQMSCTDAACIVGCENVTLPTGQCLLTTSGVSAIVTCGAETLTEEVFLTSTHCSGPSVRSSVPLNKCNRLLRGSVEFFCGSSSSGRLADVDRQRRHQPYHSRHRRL
#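 Purified cruzain at 1.5 nM, pre-incubated 15 min with compound at room temperature in 100 mM sodium acetate pH 5.5, 5 mM DTT, 0.00005% Triton X-100. Reaction started with 2 uM Z-FR-AMC; AMC fluorescence increase over 60 s gives rate.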
# StopGo reporter – FMDV 2A StopGo reporter, luciferase signal; Potency, µM (titrated, usually from 57.9 µM), for the others: at the top dose signal change, negative = less light; 410,000 compounds, 1.2% hits; human cells with a luciferase reporter of 2A StopGo recoding; control for the full effect not named in the record; active = well fitted falling curve with a large enough effect; inconclusive = small, poorly fitted or top-dose-only effect; inactive = no such curve, though single readings can be large or run the other way; tested in HEK293T cells; further: on the % scale 0 is the no-effect control and ±100 the full control effect; nearly all actives have a fitted effect of over 45% in size; luciferase light after 4 h
# SARS PLpro yeast – blocks SARS-CoV papain-like protease in a yeast assay. Potency, µM (doses to about 32.9 µM), for the others: top-dose activity, positive = growth rescue. S. cerevisiae expressing SARS-CoV PLpro, growth rescue; control for the full effect not named in the record. 330,000 compounds, 0.19% hits. AID 485353; further: 0% is about no effect; nearly all actives have a fitted effect of over 55% in size; growth read by luminescence after 48 h
# RE007 growth inh – less growth of the S. pombe RE007 Vpr strain; 360,000 compounds, 0.21% hits; Potency, µM (highest dose often 92.2 µM), for inactives: at the highest dose activity change, negative = less growth; S. pombe RE007 Vpr strain, BacTiter-Glo ATP luminescence, 24 h; control for the full effect not named in the record; active = well fitted falling curve with a large enough effect; inconclusive = small, poorly fitted or top-dose-only effect; inactive = no such curve, though single readings can be large or run the other way;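 further: on the % scale 0 is the no-effect control and ±100 the full control effect; nearly all actives have a fitted effect of over 50% in size; the assay follows cell death caused by Vpr and the record does not say whether a fall means rescue or toxicity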
#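 Fission yeast strain RE007, carrying one chromosomally integrated HIV-1 vpr copy, was seeded at OD 0.01 in PMG+AL medium with 23 nL pinned compound. After 24 h at 30 °C and 99% humidity, viability was read by BacTiter-Glo luminescence.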
# Cruzain inh Det – cruzain (T. cruzi) inhibition with detergent; P25779; 200,000 compounds, 0.43% hits; purified cruzain, Z-FR-AMC fluorescence, 0.01% Triton; Potency, µM, for the others: max response, negative = inhibition, most hits filed as inhibitors; active means well fitted curve in the direction sought with a large enough effect; inconclusive means small, poorly fitted or top-dose-only effect, or another doubt; inactive means no such curve, though single readings can be large; an effect the other way counts as inactive or inconclusive;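 further: plate controls were neutral wells for no effect and buffer without enzyme for full effect; nearly all actives have a fitted effect of over 40% in size; top concentration of the series not given in the record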
#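 Sodium acetate buffer (100 mM, pH 5.5) containing 5 mM DTT and 0.01% Triton X-100 hosted 1.5 nM cruzain and test compound for 15 min at room temperature. Cleavage of 2 uM Z-FR-AMC was then tracked by fluorescence.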
# MARV entry inh – Marburg virus entry inhibition; Marburg virus pseudotyped entry inhibition, cell reporter; control for the full effect not named in the record; about a third of the inactives were read at about 46 µM; Potency, µM (top dose mostly 37.8 µM), inactives show at the top dose activity change, negative = inhibition, most hits filed as inhibitors; 300,000 compounds, 1.8% hits; AID 540276; active = well fitted inhibition curve with a large enough effect; inconclusive = small, poorly fitted or top-dose-only effect, or effect the other way; inactive = flat fitted curve, though single readings scatter; tested in HEK293 cells; about a fifth of its hits are not listed in these tables; further: on the % scale 0 is the no-effect control and ±100 the full control effect; luciferase read-out
# * hit, by the source's call; ? = inconclusive; · = not tested or not shown; & = joins results of further samples; [ ] = remark or other dose. Unless noted, the call rests on the fitted dose curve; in most records, active means well fitted rising curve with a large enough effect; inconclusive means small, poorly fitted or top-dose-only effect; inactive means no such curve, though single readings can be large or run the other way. Potency means the concentration at half of the fitted maximal effect.
SMILES,NS1 inh,Lassa entry inh,Cruzain inh noDet,StopGo reporter,SARS PLpro yeast,RE007 growth inh,Cruzain inh Det,MARV entry inh
N#CC1=C(N)OC2=C(C(=O)CCC2)C1c1cc2c(cc1Br)OCO2 (centres undefined),3%,·,·,-16%,8%,15%,·,·
COc1ccccc1N(C)S(=O)(=O)c1ccc(C(=O)Nc2ccc3nc(C)sc3c2)cc1,-1%,?,?,25µM*,-18%,2%,-3.6%,?
CCOc1ccc(/C=N/NC2=NCCCCC2)cc1,·,0%[46.1 µM],·,3%,-2%,-16%,·,17%[46.1 µM]
CC12CC(NC(=O)N1c1ccc(C(=O)N3CCN(c4ccccn4)CC3)cc1)c1ccccc1O2 (centres undefined),-9%,·,3%,·,3%,·,5.1%,-7%
Cc1cc(C)c(C(=O)N2CCCC(N3CCN(c4cccc(C(F)(F)F)c4)CC3)C2)o1 (centres undefined),-51%,·,·,?,-3%,3%,·,·
CCc1ccccc1N(CC(=O)NC1CCCC1)C(=O)CNC(=O)c1cccs1,-6%,1%,·,26%,6%,-9%,·,-3%[46.1 µM]
CN(CCCC(=O)NCc1ccccc1)S(=O)(=O)c1ccc([N+](=O)[O-])cc1,-2%,·,·,-14%,-10%,-5%,·,·
Cc1cc2ccccc2n1CCNCc1c(C(=O)N2CCOCC2)nc2ccccn12,17%,21%,·,51%[activator],-2%,-8%,·,-4%[46.1 µM]
Cn1c(=O)c2c(ncn2CC(=O)Nc2cc(S(=O)(=O)N3CCCCC3)ccc2Cl)n(C)c1=O,·,?,·,-27%,5%,9%,·,1%
Clc1nccnc1-c1ccccc1,1%,11%,-3%,-12%,-2%,8%,0.1%,10%
COc1ccc(N2CCN(CC(=O)Nc3ccc(C)cc3)CC2)cc1,1%,·,·,12%,2%,5%,·,·
COc1ccc(CCNC(=O)C2CCN(S(=O)(=O)c3ccc(OC)c(OC)c3)CC2)cc1OC,-7%,·,·,3%,-1%,4%,·,·
COC(=O)CC1=NN(c2ccccc2)C(=O)C1,·,·,·,-1%,2%,-20%,·,5%[46.1 µM]
COc1cc(C2C(=O)N(C3CCCCC3)CC(=O)N2C2CCCC2)ccc1OC(C)C (centres undefined),·,11%[46.1 µM],-5%,-27%,·,·,0.1%,·
O=C(NCc1cccc(C(F)(F)F)c1)N1CCN(S(=O)(=O)c2ccccc2F)CC1,-4%,·,·,-24%,2%,-9%,·,?
CCCOC(=O)CC1C(=O)NCCN1Cc1ccc(F)cc1 (centres undefined),1%,·,3%,0%,9%,4%,-1.3%,·
COc1cc([N+](=O)[O-])cc(/C=N/NC(=O)CSc2nnc(-c3ccccc3)n2C)c1O,4%,-5%,·,51%[activator],0%,-9%,·,23%[46.1 µM]
CC(=O)Oc1cc2c(C(=O)NCCN3CCOCC3)c(C)oc2c2ccccc12,-4%,1%,-3%,-2%,-2%,-3%,-3.5%,11%[46.1 µM]
COC(=O)c1ccccc1NC(=O)C(C)Oc1ccccc1 (centres undefined),-40%,14%,4%,-10%,-12%,-23%,-5.0%,-13%
O=C(N/N=C/c1ccco1)C1CCCC1,0%,·,·,-20%,0%,-8%,·,·
CCc1ccc(-c2nc(CSCC(=O)N3CCN(c4ccccn4)CC3)c(C)o2)cc1,-54%,?,?,20µM*,-10%,24%,-3.4%,-82%
O=C(COc1ccccc1Cl)OCC(=O)N1CCN(S(=O)(=O)c2ccccc2)CC1,-42%,2%,22%,-23%,-2%,9%,-1.1%,-2%&-2%
CCN1C(=O)NC(=O)/C(=C\c2ccc(N3CCOCC3)cc2OC)C1=O,-1%,·,-2%,·,2%,·,1.0%,3%
Cc1cccc(NC(=O)NN2CCN(C)CC2)c1C,4%,·,·,0%,5%,8%,·,·
N#CC1=C(N)Oc2n[nH]c(-c3cccs3)c2C1c1ccoc1 (centres undefined),6%,7%,-7%,-6%,-2%,12%,-3.8%,?
COc1ccccc1C(=O)NCCSc1c(C)[nH]c2ccccc12,·,-9%[46.1 µM],0%,?,·,·,-8.2%,-30%[46.1 µM]
CC(C)(C)Cn1c(=O)[nH]c(=O)c2cc([N+](=O)[O-])cnc21,25%,-2%,-3%,0%,14%,9%,-2.7%,?
CC(C)OC(=O)c1cc2c(ccn2-c2ccc(F)cc2)n1CC(=O)N1CCN(C(=O)c2ccco2)CC1,2%,·,·,?,-2%,1%,·,·
CCOc1ccc(N2CC(=O)Nc3ccccc3NCC2=O)cc1,-1%,-7%,-1%,1%,2%,-9%,3.8%,?
Clc1ccc(-c2nc3ccc(Cl)cn3c2CN2CCOCC2)cc1,-25%,-8%,-12%,?,-13%,-20%,2.2%,-2%
O=C1CC(SC(=Nc2ccccc2)Nc2ccccc2)C(=O)N1c1ccc(Cl)cc1 (centres undefined),-2%,11%,4%,-26%,3%,12%,2.4%,0%
NS(=O)(=O)c1ccc(CNC(=O)Cc2ccccc2[N+](=O)[O-])cc1,-8%,·,·,6%,5%,-3%,·,·
COc1ccc(CCNc2ccc(C(CC(N)=O)NC(=O)c3cc(C)cc(C)c3)cc2[N+](=O)[O-])cc1 (centres undefined),?,·,·,-5%,1%,-5%,·,·
COc1cc(C(=O)OC(C)C(=O)N2CCc3ccccc3C2)ccc1OCC(=O)N1CCOCC1 (centres undefined),-5%,-10%,?,-12%,1%,9%,-3.7%,21%
COc1ccc(/C(C)=N/NC(=O)CNC(=O)c2ccncc2)c(OC)c1,-2%,?,·,-10%,3%,-2%,·,11%[46.1 µM]
CSC(=Nc1ccccc1)C(C#N)c1nc2ccccc2[nH]1 (centres undefined),-8%,?,·,-17%,0%,-7%,·,?
NC(=O)C1CCCN(S(=O)(=O)c2ccc(Br)cc2)C1 (centres undefined),0%,-3%,-9%,1%,·,6%,3.7%,?
CC(=O)Nc1cccc(C(=O)Nc2ccccc2C(=O)O)c1,1%,1%,-14%,-20%,?,-6%,2.4%,-2%
Cc1ccc(NC(=O)Cc2nnc(SCC(=O)NC3CCCC3)n2C)c(C)c1,-1%,12%[46.1 µM],·,11%,0%,28%,·,-3%[46.1 µM]
CCN1C(=O)/C(=C/C=C2\C=CN(CC)c3ccccc32)SC1=S,-1%,21%,28%,13µM*,-5%,-3%,-5.5%,?
CN(CC1CCCO1)S(=O)(=O)c1ccc(C(=O)Nc2ccc(F)cc2)cc1 (centres undefined),-5%,-15%,·,-13%,-1%,1%,·,-9%
CN(C)S(=O)(=O)c1ccc(C(=O)OCCCN=C2NS(=O)(=O)c3ccccc32)cc1,-6%,·,-6%,4%,2%,6%,-2.2%,3%
CC1CCCN(C(=O)c2ccc(NS(=O)(=O)c3cccc([N+](=O)[O-])c3)cc2)C1 (centres undefined),·,-2%,·,-21%,12%,-8%,·,-21%
CCOc1ccc(NC(=O)c2ccc3c(SCC(=O)O)c4c(nc3c2)CCCC4)cc1,·,-6%[46.1 µM],1%,-17%&8%,-4%,11%,0.4%,17%&17%[46.1 µM]
COc1ccccc1C(=O)CSc1nnc(-c2ccco2)o1,-1%,·,·,42%[activator],-6%,-18%,·,·
Cc1ccc(C(=O)N2CCc3ccccc32)cc1[N+](=O)[O-],5%,1%[46.1 µM],·,6%,2%,-6%,·,4%[46.1 µM]
CC(=O)NC(Cc1cccc(C)c1)C(=O)NC1CCN(C(=O)NCc2ccccc2)CC1 (centres undefined),1%,1%,·,6%,0%,0%,·,9%[46.1 µM]
COc1ccc(C2c3c(-c4ccccc4)n[nH]c3C(=O)N2c2ccc(C(=O)O)cc2)c(OC)c1 (centres undefined),·,?,10%,-8%,·,·,-9.2%,2%[46.1 µM]
O=C(NCCc1ccc(F)cc1)Nc1ccc2c(c1)OCO2,-4%,8%,·,43%[activator],-1%,-9%,·,26%
O=C(C1CCC(CNc2c(N3CCCCC3)c(=O)c2=O)CC1)N1CCc2ccccc2C1 (centres undefined),-6%,·,-9%,-30%,-1%,9%,-1.3%,-3%
O=C(NC12CC3CC(CC(C3)C1)C2)N(Cc1ccccc1)Cc1ccncc1,-8%,·,·,?,-1%,1%,·,·
CCOC(=O)/C(C#N)=C/c1cn(CCC(=O)O)nc1-c1ccc(Cl)cc1,7%,7%,0%,-23%,10%,2%,-9.0%,?
COc1ccc(CN(C)c2ccc(-c3nc(-c4ccccc4)no3)cc2[N+](=O)[O-])cc1,·,2%[46.1 µM],6%,34%[activator],·,·,-9.5%,-5%[46.1 µM]
CS(=O)(=O)N(CC(=O)NCCSc1ccccc1)c1ccc2c(c1)OCO2,-7%,-7%,-5%,11%,3%,14%,2.5%,-19%
O=c1c2sc3ccccc3c2n(Cc2cccc(C(F)(F)F)c2)c(=O)n1Cc1ccco1,·,-6%[46.1 µM],3%,-22%,·,·,-6.8%,-30%[46.1 µM]
O=C(CN1C(=O)C2CC=CCC2C1=O)Nc1nccs1 (centres undefined),1%,1%,-8%,-9%,3%,1%,0.7%,?
Cc1ccc(S(=O)(=O)Oc2ccccc2/C=N/NC(=O)c2c(Cl)cnn2C)cc1,-15%,-14%,2%,?,22%,-15%,-6.6%,12%
CCOC(=O)C1CCN(S(=O)(=O)c2ccc(OC)c(Cl)c2)CC1,-6%,3%,·,-13%,-1%,4%,·,?
Cc1cc2c(cc1C)CSC(c1ccc3ccccc3c1O)SC2,10%,?,25µM*,-15%,4%,2%,-0.1%,3.7µM*
CN1C(=O)C(C)(C)c2cc(S(=O)(=O)N3CCC(C(=O)NCc4ccc(F)cc4)CC3)ccc21,-21%,·,·,-11%,1%,5%,·,·
COc1ccc(CNC(=O)COc2cc(O)c3c(c2)OC(C)(C)CC3=O)cc1,-30%,·,·,1%,-5%,-4%,·,·

# Screening data: PubChem BioAssay, National Center for Advancing Translational Sciences (NCATS)

# Compounds were not picked by outcome; overall some 4.5% were active at least once.
